Compound activity from PubChem BioAssay.
Mtb H37Rv: Mycobacterium tuberculosis H37Rv growth inhibition, cell based, confirmatory dose response (AID 1949); most inactive calls were filed without a number and no value below 0 was filed; inhibition, % at 10 µg/mL; hits with a dose series show IC50 in µg/mL; hit rate 1.6% among 100,000;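 active = confirmed in a dose series; inconclusive = about 50% or more but not retested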;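 also: bacteria grown 7 days with compound before Alamar blue readout; 0% = untreated bacteria and 100% = reference antibiotic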
Starred values were filed as active, the others as inactive; i = inactive; ? = inconclusive. These rows are one share of the data; count on the stated rates, not on these rows.

Molecule	Mtb H37Rv
O=C1CC(N2CCN(c3ccccc3F)CC2)C(=O)N1c1ccc(Oc2ccccc2)cc1 (stereo not given)	i
O=C(Cc1ccccc1)Nc1ccc(N2CCCCC2)cc1	12%
NC(=O)c1ccccc1NC(=O)c1ccc(COc2ccc(Cl)cc2Cl)cc1	i
CC(C)(C)c1cc(C(=S)N2CCN(c3ccc(F)cc3)CC2)cc(C(C)(C)C)c1O	i
Cc1ccccc1C(=O)Nc1cccc(NC(=O)c2ncn[nH]2)c1	i
O=C(Nc1nc2ccc(F)cc2s1)c1ccc([N+](=O)[O-])o1	5.1µg/mL*
Cc1ccc(CNCCCN2CCOCC2)s1	i
Cc1cccc(N2C(=O)S/C(=C/c3ccccc3Cl)C2=O)c1	i
CCCCC(=O)Nc1ccc(C(=O)Nc2nnc(COC)s2)cc1	i
OC(COc1ccc2ccccc2c1)CN1CCN(c2ccc(Cl)cc2)CC1 (stereo not given)	i
NC(=O)c1ccc(-n2c(CCC(=O)O)ccc2-c2ccccc2)cc1	i
COc1ccc(Cl)cc1N(CC(=O)Nc1ccccc1C(=O)NCc1ccco1)S(C)(=O)=O	i
COc1ccc(S(=O)(=O)N(CC(=O)Nc2ccccc2C(=O)NCc2ccco2)c2ccc(F)cc2)cc1OC	i
CCN(CC)c1ccc(NC(=O)c2ccccc2Br)c(C)c1	?
O=C(NCCSCc1ccccc1)c1ccccc1Cl	i
Cc1ccc(NC(=O)C2C3/C=C\CCCCC32)cc1 (stereo not given)	i
C=CCn1c(SCC(=O)c2cccs2)nc2scc(-c3ccccc3)c2c1=O	i
CCN(CC)S(=O)(=O)c1cc([N+](=O)[O-])ccc1N1CCN(C)CC1	i
O=S(=O)(Nc1ccc(O)c(Br)c1)c1ccccc1	0%
Cc1cc(C(F)(F)F)nc2sc([N+](=O)[O-])c(N)c12	1%

Continued:
Molecule	Mtb H37Rv
C=Cc1ccc(COc2ccc3c(c2)oc(=O)c2cc(OC)ccc23)cc1	i
CC(C)CC(C(=O)Nc1nc(-c2ccccc2)cs1)N1C(=O)c2ccccc2C1=O (stereo not given)	i
CCCCNCCCOc1cccc2ccccc12	21%
Cc1cccc(C(=O)Nc2ccc(S(=O)(=O)NC(C)C)cc2)c1	i
O=c1c2cc(Br)ccc2nc(/C=C/c2c[nH]c3ccccc23)n1-c1ccccc1	2%
COc1ccc(CN2CCN(Cc3ccc(Br)cc3)CC2)c(OC)c1OC	3%
CN(C)S(=O)(=O)Nc1ccc(Cc2ccncc2)cc1	i
O=S(=O)(Nc1ccc2oc3c(c2c1)CCCC3)c1ccc(F)cc1	i
O=C(COc1ccc(C(=O)NCCc2ccccc2)cc1)Nc1ccccc1C(F)(F)F	i
COc1cccc(C(=O)NCCOc2ccc(C(C)(C)C)cc2)c1	i
CCC(=O)Oc1ccc(C(=O)Nc2cc(Cl)c(O)c(Cl)c2)cc1	i
CCOC(=O)C1CCN(C(=O)C2CCN(S(=O)(=O)c3ccc(OC)cc3)CC2)CC1	i
CCN(CC)CCN1C(=O)C(O)=C(C(=O)c2cccs2)C1c1cccc(Cl)c1 (stereo not given)	i
Cc1ccc(NC(=O)Nc2cccc(F)c2)nc1	i
CCOC(=O)c1c(NC(=O)c2cccc(Cl)c2)sc(C(=O)Nc2ccccc2F)c1C	i
COc1ccc(S(=O)(=O)N(CC(=O)NC2CCCC2)c2ccc(C)cc2)cc1Br	i
CCOC(=O)c1ccccc1NC(=O)Cc1ccc(C)cc1	i
O=[N+]([O-])c1ccc(-c2csc(SC/C=C/c3ccccc3)n2)cc1	i
O=C(NCCN=C1NS(=O)(=O)c2ccccc21)c1ccc(Cl)c(Cl)c1	i
COc1ccc(NC(=O)c2ccco2)cc1NC(=O)c1sc2ccccc2c1Cl	2%

Further compounds:
Molecule	Mtb H37Rv
Cc1ccc(NC(=O)Nc2nnc(C34CC5CC(CC(C5)C3)C4)s2)cc1C	i
CCOC(=O)N1CCN(C(=O)c2ccc(C#CC3(O)CCCCC3)cc2)CC1	i
O=C(C1CCNCC1)N1CCN(c2ccccc2)CC1	i
COC(=O)NN1C(=O)c2ccccc2C1=O	i
Cc1cc2oc3c(c(=O)c2cc1C)C(c1cccc([N+](=O)[O-])c1)N(Cc1ccccc1)C3=O (stereo not given)	i
CCOc1ccccc1N1CCN(C(=O)c2cccs2)CC1	i
CCNC(=S)Nc1cccc(C(=O)OC)c1	i
CNC(=S)Nc1cnn(Cc2cccc3ccccc23)c1	21%
CCn1c(SCC(=O)c2ccc(Cl)cc2)nnc1-c1cccs1	i
C/C(=N/N1CCN(Cc2ccc(Cl)cc2)CC1)c1cccc([N+](=O)[O-])c1	i
CCc1ccccc1NC(=O)C12CCC(C)(C(=O)O1)C2(C)C (stereo not given)	i
N/C(=N\OC(=O)N1CCOCC1)c1ccc(Cl)cc1	36%
O=C(O)CCc1ccc(-c2ccc(Br)cc2)n1Cc1ccco1	3%
CCOC(=O)c1ccc(NC(=S)NNC(=O)C(C)Sc2nc3ccccc3s2)cc1 (stereo not given)	i
COc1ccc(/C=C/C(=O)C23CC4CC(CC(C4)C2)C3)cc1OC	i
Cc1ncc([N+](=O)[O-])n1CC(=O)NC1CCCCC1	0%
COC(=O)c1cc(NS(=O)(=O)c2ccc(N3CCCC3)c([N+](=O)[O-])c2)cc(C(=O)OC)c1	i
Cc1c(C(=O)Nc2ccccc2)oc2c1C(=O)CC(C)(C)C2	i
O=c1c2c3c(sc2[nH]c(=S)n1-c1ccc(Br)cc1)CCCC3	i
O=C(Oc1cccc2cccnc12)N1CCCCCC1	i

Overlap with the part before: 2 entries; new compounds follow.
Molecule	Mtb H37Rv
O=c1c2c3c(sc2[nH]c(=S)n1-c1ccc(Br)cc1)CCCC3	i
O=C(Oc1cccc2cccnc12)N1CCCCCC1	i
COc1ccc(-c2noc(-c3ccccc3Cl)n2)cc1	2%
Cc1cc(C)c(N2CCN(CC(=O)Nc3ccc(F)cc3)CC2)c(C)c1	i
CCOc1ccccc1N1CCN(C(=O)C2CCN(Cc3cccc4ccccc34)CC2)CC1	i
C=CCn1c(SCC(=O)Nc2ccccc2OC)nc2sc(C)cc2c1=O	7%
C=CCSc1nnc(NC(=O)c2ccc(F)cc2)s1	11%
CCN(CC(O)COc1ccc(Br)cc1)C1CCCCC1 (stereo not given)	i
COc1ccc(CCNc2ncc3c(n2)CC(c2cccs2)CC3=O)cc1 (stereo not given)	4%
Cc1ccc(OCC(=O)Oc2ccccc2Cl)cc1	i
O=Cc1ccc(OC(=O)c2cccs2)c(Br)c1	25%
COCc1nc2ccccc2n1Cc1ccccc1Cl	i
COc1cc(C)nc(NC(=O)Nc2sc(NS(=O)(=O)c3ccc(C)cc3)nc2C)n1	i
Cc1ccc(CC(=O)N2CCN(C)CC2)cc1	i
CCOC(=O)c1ccc(Oc2coc3cc(OC)ccc3c2=O)cc1	i
Cc1onc(-c2ccccc2Cl)c1C(=O)NCC1CCCO1 (stereo not given)	7%
Cc1ccc(CC(CC(=O)O)C(=O)Nc2cc(C)ccc2C)cc1 (stereo not given)	i
CC(C)Oc1ccccc1C1CC(=O)Nc2cc3c(cc21)OCCO3 (stereo not given)	1%
Cc1ccc(NC(=O)C23CCC(C)(C(=O)O2)C3(C)C)c(C)c1 (stereo not given)	i
Cc1ccc(OCc2nc(-c3ccccn3)no2)c(C)c1	2%
CC(=O)c1cccc(NC(=O)NC2CCN(Cc3ccccc3)CC2)c1	i
CC1Cn2c(COc3ccccc3)nnc2S1 (stereo not given)	i

Later entries:
| smiles | Mtb H37Rv |
| --- | --- |
| Cc1ccc(S(=O)(=O)C(=CNCc2ccccc2)S(=O)(=O)c2ccc(C)cc2)cc1 | i |
| CC(=O)Nc1ccc(-c2nn[nH]n2)cc1 | i |
| CCn1cc(CN(C)C(=S)Nc2ccc(OC)c(OC)c2)c(C)n1 | i |
| Cc1cc(C)nc(NS(=O)(=O)c2ccc(NC(=O)COc3c(C)cccc3C)cc2)n1 | i |
| O=C1CSC(SCC(=O)Nc2cccc3ccccc23)=N1 | i |
| CC(C)N(C(=O)Cn1ccnc1)c1ccccc1 | i |
| CCOc1cccc(NS(=O)(=O)c2cccc(C(F)(F)F)c2)c1 | 2% |
| O=C(CC1COc2ccccc2O1)Nc1ccccn1 (stereo not given) | i |
| O=C(COc1ccc(Cl)cc1Cl)Nc1ccc(C(=O)c2ccccc2)cc1 | i |
| CCC1CCc2c(sc(NC(=O)CCC(=O)O)c2C(N)=O)C1 (stereo not given) | i |

The listing continues:
| smiles | Mtb H37Rv |
| --- | --- |
| O=C(CCC1CCCCC1)N1CCN(C(c2ccccc2)c2ccccc2)CC1 | 40% |
| O=C(C1CCCCC1)N1CCN(C(=O)C2CCCCC2)CC1 | i |
| Cc1cc2oc(C(=O)Nc3ccc(Cl)c(Cl)c3)c(C)c2cc1C | i |
| COC(=O)C(C)Sc1ncc(-c2ccccc2)nn1 (stereo not given) | 9% |
| CCOC(=O)CNC(=O)c1cc(Br)c(CC)s1 | i |
| Cc1ccc(NC2=NS(=O)(=O)c3ccccc32)cc1C | i |
| COC(=O)COc1cccc(NC(=O)c2ccc(C)cc2)c1 | i |
| CC1CCCN(CCCOc2ccccc2Br)C1 (stereo not given) | i |
| O=C(NNC(=O)C(F)(F)C(F)(F)C(F)(F)F)c1cccs1 | i |
| CSCCc1nc(SCC(=O)Nc2cccc3ccccc23)[nH]c1C | 10% |

Going on with the list.
| smiles | Mtb H37Rv |
| --- | --- |
| Cc1ccccc1/C=C(\C#N)c1nc2ccccc2s1 | i |
| COc1cccc(/C=C(\C#N)c2ccccc2)c1OC(C)C | i |
| Cc1cc(C)n(-c2nncc(-c3ccccc3)n2)n1 | 0% |
| O=S(=O)(c1cccc2cccnc12)n1cnc2ccccc21 | 1% |
| CC(=O)c1ccc(NC(=O)NNC(=O)Cc2cccn2C)cc1 | i |
| Cc1ccc(C)c(-c2nc3ccccc3c(C(=O)NCc3cn(C)nc3C)c2C)c1 | i |
| O=C1C(Cc2ccccc2)NC(=S)N1c1ccccc1 (stereo not given) | i |
| Cc1ccc(Cn2nc(C)c([N+](=O)[O-])c2C)cc1 | i |
| O=C(Nc1ccc2nc(SCC(=O)N3CCCC3)sc2c1)c1ccccc1Br | i |
| CCOC(=O)N1CCN(CC(O)COc2ccc(Cl)cc2)CC1 (stereo not given) | i |

The results go on.
| smiles | Mtb H37Rv |
| --- | --- |
| C=CCNCCCOc1c(Cl)cc(C)cc1Br | i |
| CCN(CC)c1ccc(NC(=O)c2ccc(-c3ccccc3)cc2)c(C)c1 | i |
| O=C(NNC(=O)C(F)(F)C(F)(F)C(F)(F)F)c1ccco1 | 1% |
| COc1ccc(CCNC(=O)Nc2ccccc2[N+](=O)[O-])cc1 | 8% |
| Cc1cc(Cl)ccc1N(CC(=O)Nc1c(C)n(C)n(-c2ccccc2)c1=O)S(C)(=O)=O | i |
| CCOc1ccc(C(=O)N2c3ccc(F)cc3CCC2C)cc1 (stereo not given) | i |
| Cc1nnc2c3ccccc3nc(-c3ccc(Br)cc3)n12 | i |
| O=C(Nc1cccnc1)c1cnn2cccnc12 | i |
| CC(=O)c1ccc(N(C(F)F)S(C)(=O)=O)cc1 | 1% |
| COc1ccc(-c2cc(-c3cccs3)nc(SCc3c(C)noc3C)c2C#N)cc1OC | 1% |

The list goes on.
| smiles | Mtb H37Rv |
| --- | --- |
| CS(=O)(=O)c1ccc2nc(NS(=O)(=O)Cc3ccccc3)sc2c1 | i |
| O=C(NC(=S)Nc1cc(C(F)(F)F)cc(C(F)(F)F)c1)c1ccccc1Br | 16% |
| C=CCn1c2ccccc2n2c(C(=O)OCC)c(C)nc12 | 3% |
| Cc1ccc(S(=O)(=O)N(CC(=O)Nc2cccnc2)c2ccc(Cl)cc2)cc1 | i |
| O=C(Nc1ccc(Cl)c(Cl)c1)C1CC(=O)N(c2ccccc2)C1 (stereo not given) | i |
| Cc1cc(C)nc(Nc2n[nH]c(-c3cccnc3)n2)n1 | i |
| COc1ccc(Oc2coc3cc(OCC(=O)NCc4ccccc4)ccc3c2=O)cc1 | i |
| CCCOc1cccc(C(=O)NC(=S)Nc2cc(C(=O)O)ccc2OC)c1 | i |
| CN(C)S(=O)(=O)c1ccc(C(=O)Nc2cc(C(F)(F)F)cc(C(F)(F)F)c2)cc1 | i |
| Cc1nnc(Nc2ccc(N3CCCCC3)cc2)[nH]c1=O | i |

(listing goes on)
| smiles | Mtb H37Rv |
| --- | --- |
| CN1CCN(c2ccc(C(=O)NC34CC5CC(CC(C5)C3)C4)cc2[N+](=O)[O-])CC1 | i |
| COc1cc(C=O)ccc1Oc1nc(-c2ccccc2)cc(C(F)(F)F)n1 | i |
| O=C(Oc1ccc(Br)cc1C(=S)N1CCCC1)c1ccc([N+](=O)[O-])cc1 | i |
| Cc1cccc(NC(=O)Cn2nc(-c3ccc(Cl)cc3)c3ccccc3c2=O)c1 | i |
| CCCc1cc(C(=O)Nc2cccc([N+](=O)[O-])c2)cs1 | ? |
| COc1ccccc1Nc1nc(N)c2ccccc2n1 | 3% |
| COc1cc(-c2ccc(C)cc2)nc2oc(OCC(C)=O)nc12 | i |

Structural class, the compounds so far containing two or more sulfur atoms
| smiles | Mtb H37Rv |
| --- | --- |
| C=CCn1c(SCC(=O)c2cccs2)nc2scc(-c3ccccc3)c2c1=O | i |
| O=[N+]([O-])c1ccc(-c2csc(SC/C=C/c3ccccc3)n2)cc1 | i |
| CCn1c(SCC(=O)c2ccc(Cl)cc2)nnc1-c1cccs1 | i |
| CCOC(=O)c1ccc(NC(=S)NNC(=O)C(C)Sc2nc3ccccc3s2)cc1 (stereo not given) | i |
| O=c1c2c3c(sc2[nH]c(=S)n1-c1ccc(Br)cc1)CCCC3 | i |
| C=CCn1c(SCC(=O)Nc2ccccc2OC)nc2sc(C)cc2c1=O | 7% |
| C=CCSc1nnc(NC(=O)c2ccc(F)cc2)s1 | 11% |
| COc1cc(C)nc(NC(=O)Nc2sc(NS(=O)(=O)c3ccc(C)cc3)nc2C)n1 | i |
| Cc1ccc(S(=O)(=O)C(=CNCc2ccccc2)S(=O)(=O)c2ccc(C)cc2)cc1 | i |
| O=C1CSC(SCC(=O)Nc2cccc3ccccc23)=N1 | i |
| CSCCc1nc(SCC(=O)Nc2cccc3ccccc23)[nH]c1C | 10% |
| O=C(Nc1ccc2nc(SCC(=O)N3CCCC3)sc2c1)c1ccccc1Br | i |
| COc1ccc(-c2cc(-c3cccs3)nc(SCc3c(C)noc3C)c2C#N)cc1OC | 1% |
| CS(=O)(=O)c1ccc2nc(NS(=O)(=O)Cc3ccccc3)sc2c1 | i |
